Compound activity deposited in PubChem by Fisher Drug Discovery Resource Center.
NPYLR7 agonist: agonists of mosquito NPYLR7 receptor, primary screen, cell-based, Aedes aegypti, calcium fluorescence, mosquito biting behavior | HEK293T NPYLR7/Galpha15, GCaMP6s calcium fluorescence | 270,000 compounds, 0.15% hits | activation, % at 10 µM; in the data active = activation above about 40%;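 also: 0% = vehicle and 100% = reference agonist at the receptor; some compounds past the cut are filed as inactive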
NPYLR7 agonist max-min: also measured in NPYLR7 agonist; calls as there; activation, %; measured here: Max-Min RFU normalised activation; some inactives read as strong as hits;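 span of the calcium signal over five minutes; 0% = vehicle and 100% = native peptide agonist; compound fluorescence can raise it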
An asterisk follows results filed as active; & = joins results of further samples.

Fields – NPYLR7 agonist max-min, NPYLR7 agonist
- CCCc1noc(-c2ccc(C(C)(C)C)cc2)n1
    -0.2, 1.8
- O=[N+]([O-])c1cc2c(c(COc3ccc4cc(Br)ccc4c3)c1)OCOC2
    5.4, 0.6
- CCn1ccnc1S(=O)(=O)C(C)c1cn(-c2ccccc2)nn1 (stereo unspecified)
    5.3, 8.5
- Cc1ccccc1C(=O)NCCn1c(C)cc2ccccc21
    -2.8, -0.9
- Cc1ccc(/C=C2\SC(=S)N(C(CC(=O)O)C(=O)O)C2=O)cc1 (stereo unspecified)
    -9.5, -4.0
- CCCNc1ncnc2c1nnn2CC
    1.0, 6.8
- Nc1nc(N)nc(SCC(=O)NC(=O)NC2CCS(=O)(=O)C2)n1 (stereo unspecified)
    2.7, -0.5
- O=c1[nH]c(NCCO)nnc1Cc1ccccc1
    6.1, 11.7
- CCn1c(C)cc(O)c(C(c2ccc(O)cc2)c2c(O)cc(C)n(CC)c2=O)c1=O
    4.7, 3.3
- CCCCN(C=O)c1c(CC)nc2c(OCCOc3ccc(F)cc3)cccn12
    4.5, -0.1
- O=[N+]([O-])c1cccc(Nc2cncc(-c3ccc(CO)cc3)c2)c1
    -12.3, -10.5
- O=C(Cn1cnc([N+](=O)[O-])n1)NN=C1CCCCC1
    -4.6, 0.2
- CCc1[nH]c2ccc(CNC(=O)c3ncccc3OC)cc2c1C
    9.9, 12.9
- CCOc1ccc(C(=O)NNc2cc(=O)n(C)c(=O)n2C)cc1
    1.0, 1.6
- CCCOc1ccc(NC(=O)Nc2ccc(F)cc2F)cc1OCCC
    0.1, 0.8
- Cc1nn(-c2cccc(Cl)c2)c2c1C(O)=C1C(=O)CCCC1N2 (stereo unspecified)
    -0.1, 3.3
- Cc1ccc(-c2nnc(SCC(=O)NC(=O)NC(C)(C)C)o2)cc1
    -9.2, -5.0
- COc1ccc(CC2CCN(C(=O)c3ccc(F)cc3C(F)(F)F)CC2)cc1
    9.1, 14.9
- O=C(O)c1ccc(NC(=O)c2cccc(S(=O)(=O)Nc3ccc(C(=O)O)cc3)c2)cc1
    1.5, 3.5
- COc1cccc(Cn2c(=O)c(C(=O)N3CCN(C)CC3)nn(-c3ccccc3F)c2=O)c1
    -8.0, -9.3
- C=CCc1cccc2cc(C(=O)Nc3ccccc3C)c(=O)oc12
    -12.1, -10.5
- COc1ccc(Cl)cc1CN(C)C(=O)CCc1c(C)[nH]c(=S)[nH]c1=O
    7.8, 10.5
- Fc1cccc(-n2[nH]nnc2=S)c1
    10.9, 2.3
- O=C(CSc1nc2ccccc2[nH]1)Nc1ncccn1
    19.8, 15.4
- CN(C)C=Nc1ccc(S(=O)(=O)N(C)c2nccs2)cc1
    -0.2, 0.8
- Cc1csc(SCCn2c(N3CCOCC3)nc3c2c(=O)[nH]c(=O)n3C)n1
    -0.8, -6.7
- O=C(c1ccc(-c2cccc(C(F)(F)F)c2)s1)N1CCc2ccccc2C1c1ccc(F)cc1 (stereo unspecified)
    6.4, 23.1
- COc1ccc([N+](=O)[O-])cc1NC(=O)c1c(Br)cnn1C
    -10.7, -7.9
- Cc1ccc(-c2cccc(C(=O)N3CCOc4ccc(C(C)(O)CN(C)C)cc4C3)c2)o1 (stereo unspecified)
    0.4, 3.9
- O=C(O)c1cc2cc(I)cc(Br)c2o1
    8.9, 6.0

Single records (already shown). Order of values: NPYLR7 agonist max-min | NPYLR7 agonist
O=C(CSc1nc2ccccc2[nH]1)Nc1ncccn1 is entered as 19.8 | 15.4
Cc1ccc(-c2cccc(C(=O)N3CCOc4ccc(C(C)(O)CN(C)C)cc4C3)c2)o1 (stereo unspecified) is entered as 0.4 | 3.9
C=CCc1cccc2cc(C(=O)Nc3ccccc3C)c(=O)oc12 is entered as -12.1 | -10.5

Other results:
Fields – NPYLR7 agonist max-min, NPYLR7 agonist
- O=C(Nc1ccc2c(c1)CN(C(=O)Nc1ccc3c(c1)OCO3)CC2)C1CCCO1 (stereo unspecified)
    -2.1, 0.1
- O=C(O)c1coc(CN(Cc2cccc(C(F)(F)F)c2)Cc2ccc(Cl)cc2Cl)n1
    7.3, 10.4
- O=C(COc1c(F)c(F)c(F)c(F)c1F)Nc1ccc2[nH]cc(CCN3CCN(c4cccc(C(F)(F)F)c4)CC3)c2c1
    0.4, 2.7
- CCOC(=O)c1cn[nH]c1S(=O)(=O)Nc1cccc(C)c1C
    -5.0, -2.1
- O=C(CSc1nncn1C1CC1)Nc1nc2ccc(F)cc2s1
    -0.2, 3.0
- Cn1ccnc1Sc1ccc(S(C)(=O)=O)cc1[N+](=O)[O-]
    3.2, 0.6
- Cc1noc(-c2cccs2)c1C(=O)N[C@H]1CCC[C@@H]1OCc1ccccc1
    13.7, 4.3
- Cc1cc2nc3c(=O)[nH]c(=O)nc-3n(C)c2cc1C=O
    -8.7, -1.1
- O=C(c1ccc(Cn2cccn2)o1)N1C[C@H]2CC=CC[C@H]2C1
    -2.1, -1.1
- CCOC(=O)C1(Cc2cccc(OC)c2)CCN(Cc2ccc3c(c2)OCCO3)CC1
    1.7&12.5, 6.9&9.0
- COc1ccc(-c2ccc(OCCNS(=O)(=O)c3ccc(Cl)s3)nn2)cc1
    -15.3, -12.3
- Cc1ccc2oc3c(c(=O)c2c1)C(c1ccncc1)N(c1cc(C)on1)C3=O (stereo unspecified)
    4.0, 6.3
- CN(CC(=O)N1N=C(c2ccc(F)cc2)CC1c1ccc(Cl)cc1)c1ccccc1 (stereo unspecified)
    -0.1, 0.2
- COc1cc(NC(=O)c2cc3c4c(sc3nc2N)CN(C)CC4)c(OC)c(OC)c1
    -11.7, -8.3
- O=C1CCC(C(=O)N2CCCCCCC2)CN1CCN1CCOCC1 (stereo unspecified)
    0.4, 1.2
- CCC(Sc1n[nH]c(-c2cc(F)cc(F)c2)n1)C(N)=O (stereo unspecified)
    0.9, 4.0
- Cc1cc(C)n2c(C(=O)N3CCCC(CCc4c(F)cccc4F)C3)nnc2n1 (stereo unspecified)
    4.3, -0.8
- CCOC(=O)CN(CC(=O)N(CCc1ccccc1)Cc1ccc(C)o1)CC1CC1
    -6.1, -8.0
- Cc1cc2c(=O)[nH]cnc2s1
    2.7, 4.4
- COc1ccc(OCCNC(=O)C2(C)CCN2Cc2ccccc2OC(F)F)cc1 (stereo unspecified)
    -1.2, 6.4
- O=C(CBr)c1nc2ccccc2s1
    10.6, 21.4
- CCc1cc(N2CCN(C(C)=O)CC2)nc(SCc2ccc(C(=O)O)o2)n1
    9.8, 11.5
- O=C(c1ccco1)N(CCN1CCOCC1)CC(=O)N1CCc2sccc2C1COc1ccc(F)cc1 (stereo unspecified)
    12.5, 1.5
- COc1ccc(OCCN2CCC(C(=O)NC(c3ccc4c(c3)OCO4)c3ccccn3)CC2)cc1 (stereo unspecified)
    -3.8, 1.9
- Cn1nc(C(=O)Nc2ncc(F)cc2I)ccc1=O
    -0.2, 2.4
- CCC1CCCN(S(=O)(=O)c2cnc(C(C)C)[nH]2)C1 (stereo unspecified)
    2.9, 8.0
- Cc1cccc(OCCNC(=O)NC2CCCc3occc32)c1 (stereo unspecified)
    1.7, 5.8
- COc1ccc(NC(=O)c2csc(COC(=O)c3ccccc3)n2)cc1
    9.9, 12.3
- c1cc2c(cc1CNc1ccc(N3CCCC3)cc1)OCO2
    3.8, 5.6
- O=C(COc1ccccc1)NCCSc1ncc(-c2ccccc2)[nH]1
    3.0, 5.6
- C=c1onc(-c2ccccc2)c1=c1[nH]/c(=C\c2cc(OC)c(OC)cc2OC)c(=O)o1
    39.8, 51.1
- CCCCc1ccc(NC(=O)CSCc2cc(=O)[nH][nH]2)cc1
    -15.1, -5.4
- CC(C)c1ccc(OCC2c3ccsc3CCN2C(=O)CN(C(=O)c2cccs2)C(C)C)cc1 (stereo unspecified)
    -0.8, -3.0
- CCc1nc2ccc(C(=O)N3CCN(C(=O)c4ccco4)CC3)cn2c1N(C)Cc1ccc(NC(C)=O)cc1
    -10.5, -2.7
- COC(=O)c1cccc(-c2nccn2CCc2cccc(F)c2)n1
    -16.1, -9.0
- O=C(CCl)N1CCCN(C(=O)CN2CCc3sccc3C2c2ccccc2)CC1 (stereo unspecified)
    -7.0, -13.5
- N#CCOC(=O)c1csc(-c2ccc(F)cc2)n1
    -6.2, -5.0
- O=C(Nc1cccc(Cl)c1N1CCOCC1)N1CCNC(C(F)(F)F)CC1 (stereo unspecified)
    -2.2, -0.5
- CC(C)c1nccc(CN(C)Cc2cnn(-c3ccccc3)c2)n1
    -7.7, -2.2
- CN1CC2(CCN(C(=O)c3ccc[nH]3)C2)OC1=O (stereo unspecified)
    -0.5, 3.3
- CCC(=O)N1N=C(c2cccc(NS(=O)(=O)c3ccccc3)c2)CC1c1cccs1 (stereo unspecified)
    14.6, 2.6
- CCc1nc2ccc(C(=O)NCc3ccc(N(C)C)cc3)cn2c1N(CC)CC(=O)N(C)C
    18.9, 19.7
- O=P1(Nc2cc(C(F)(F)F)ccc2Cl)C=C(c2ccccc2)OC(c2ccccc2)=C1
    88.3*, 52.5*
- Cn1nnc(-c2ccc(C(=O)N3CCN4CCNC(=O)C4C3)cc2)n1 (stereo unspecified)
    5.0, 2.6
- COc1cc(OC)cc(C(=O)N2CCN(Cc3cc(=O)c(OCc4ccc(C(F)(F)F)cc4)co3)CC2)c1
    13.8, 1.0
- O=C(NCc1ccc(OC2CCCCC2)cc1)N1CCC(N2CCCC2=O)CC1
    -3.8, 9.9
- COc1cccc(CCNC(=O)c2cccnc2NC(C)C)c1
    -4.9, -1.8
- CN(C)c1ccc(N=CC=C2N(C)c3ccccc3C2(C)C)cc1
    40.7, 29.3
- Cc1cccnc1CNC(=O)c1ccccc1Br
    1.4, 7.0
- O=C(Nc1cccc(F)c1)NC1CCc2[nH]c3ccccc3c2C1 (stereo unspecified)
    -14.5, -7.4
- C#Cc1cccc(N(Cc2ccco2)S(=O)(=O)CC2CCCO2)c1 (stereo unspecified)
    4.3, 8.0
- O[C@@H]1C[C@H]2CN(Cc3ccc(-c4ccccc4Cl)o3)C[C@H]2C[C@@H]1O
    4.4, 7.4
- CCOCCCNc1nc(Nc2ccc(OCC)cc2)c2cnn(-c3ccccc3)c2n1
    -0.2, 0.0
- CCCc1ccc(C(=O)Nc2nnc(SCC)s2)cc1
    -13.4, -11.9
- CCCN(CC(=O)NC)S(=O)(=O)Cc1ccccc1
    6.8, 4.3
- Cc1cc2nc(CCNC(=O)C(C)(C)NC(=O)c3cccs3)[nH]c2cc1C
    2.2, 4.7
- CCN(CC)CCNC(=O)c1ccc(NC(C)=O)cc1
    4.0&-4.9&-14.5, 15.9&-1.1&-10.1
- O=c1c2cnc3ccnn3c2ccn1Cc1ccccc1
    0.5, 2.1
- Cc1nc2scc(C)n2c(=O)c1NC(=O)C(C)(C)C
    7.0, 14.2
- CCCNC(C)(C)COC(=O)c1ccccc1
    3.7&5.1, 2.0&14.5

Continuation:
Fields – NPYLR7 agonist max-min, NPYLR7 agonist
- COCCCN(CC(=O)N1CCc2sccc2C1c1ccc(C)cc1)C(=O)c1cc(OC)cc(OC)c1 (stereo unspecified)
    10.3, 4.5
- Cc1onc(-c2c(Cl)cccc2Cl)c1C(=O)N1CCC(c2ccc(F)cc2)CC1
    -5.9, -1.4
- Cn1c(C2(c3ccc(Cl)cc3)CCC2)n[nH]c1=S
    -10.8, -6.6
- O=C(OCc1cc(Cl)c2c(c1)OCO2)C1CCN(C(=O)Nc2ccccc2)CC1
    0.0, 3.2
- COc1ccc(C2N(c3cccc(Cl)c3C)C(=O)C2(F)F)cc1OC (stereo unspecified)
    -0.4, -0.5
- CC1(C)Cc2ccccc2-c2nc(-c3ccccc3)oc(=O)c21
    3.9, -1.7
- COCC(=O)N1CCCN(Cc2ccccc2-c2ccccc2)CC1
    -1.7, 14.1
- CC(NC(C)c1ccccc1Cl)c1nc2ccccc2c(=O)[nH]1 (stereo unspecified)
    -6.9, -4.9
- COc1ccc2nc(Nc3nc4cc5c(cc4s3)OCO5)sc2c1
    1.1, 4.0
- O=C(CNC(=O)c1ccccc1)Nc1ncc(Cc2ccc(Br)cc2)s1
    5.4, -0.9
- CCN(CC(=O)Nc1ccccc1C(F)(F)F)C(=O)c1ccc(N2CCCC2=O)cc1
    -3.3, -0.6
- COC(=O)c1ccc(-c2noc(CN(C)Cc3cccc(-n4cccn4)c3)n2)cc1
    5.2, 5.9
- Cc1ccoc1C(=O)N(C)CC(=O)c1ccc(O)cc1
    -6.7, -4.4
- CC(SCc1nc(N)nc(N(C)C)n1)C(=O)Nc1cc(F)ccc1F (stereo unspecified)
    -3.0, 0.5
- CC(C)c1nc2ccccc2n1Cc1ccccc1
    -6.2, -3.5
- Cc1cc(C)n(C)c(=O)c1C(=O)N1CCOc2ccccc2C1
    7.8, 16.4
- CCOC(=O)C1=C(c2ccc(OC)cc2)NC(=O)NC1c1ccc(Br)cc1 (stereo unspecified)
    -7.1, -1.5
- Cc1cc(C)nc(SCc2cc(=O)c(OC(=O)c3ccccc3)co2)n1
    -15.6, -15.3
- COc1ccc(-n2nc(C(=O)N3CCN(C(C)=O)CC3)c(=O)n(Cc3ccccc3Cl)c2=O)cc1OC
    4.8, 7.5
- CCN(Cc1ccncc1)C(=O)c1cc(C)sc1NC(=O)C(C)(C)C
    3.8, 15.4
- CC(=O)O[C@@H](C)C(=O)N1CCc2ccccc2C1c1ccccc1F (stereo partly specified)
    9.5, 15.8
- COc1ccc(CNCc2cccnc2Oc2ccc(C)nc2)cc1F
    -2.7, 1.9
- O=C(c1coc(COc2ccc(F)cc2Cl)n1)N1CCC1c1cccs1 (stereo unspecified)
    -4.2, 1.8
- CCN(CC)CCCC(C)NC(=O)c1cc(-c2ccccc2Cl)nn1-c1ccc(OC)cc1 (stereo unspecified)
    25.6, 14.1
- COc1cc2c(cc1OC)C(c1c(F)cccc1Cl)N(C(=O)c1cccc3cc[nH]c13)CC2 (stereo unspecified)
    3.0, 8.2
- CCC(CC)n1nc(C)cc1NC(=O)Cc1nc(C)sc1C
    -4.7, 3.7

This is a subset, so the mix of outcomes need not match the whole.
